TRPV1 PAM: HTS Assay for Compounds that Act as Potentiators of the Vanilloid Receptor 1 | potentiation, % at 8.33 µM | AID 540277, 2011 | TRPV1-expressing cells, Fluo-8 calcium influx, capsaicin EC20 potentiation; host cell line not named in the record; control for the full effect not named in the record | 0.02% of 320,000 active; active means potentiation above 80%; inconclusive means 30% to 80%; inactive means below 30%; further: 0% is about no effect
Target sequence (Q8NER1 whole entry, looked up): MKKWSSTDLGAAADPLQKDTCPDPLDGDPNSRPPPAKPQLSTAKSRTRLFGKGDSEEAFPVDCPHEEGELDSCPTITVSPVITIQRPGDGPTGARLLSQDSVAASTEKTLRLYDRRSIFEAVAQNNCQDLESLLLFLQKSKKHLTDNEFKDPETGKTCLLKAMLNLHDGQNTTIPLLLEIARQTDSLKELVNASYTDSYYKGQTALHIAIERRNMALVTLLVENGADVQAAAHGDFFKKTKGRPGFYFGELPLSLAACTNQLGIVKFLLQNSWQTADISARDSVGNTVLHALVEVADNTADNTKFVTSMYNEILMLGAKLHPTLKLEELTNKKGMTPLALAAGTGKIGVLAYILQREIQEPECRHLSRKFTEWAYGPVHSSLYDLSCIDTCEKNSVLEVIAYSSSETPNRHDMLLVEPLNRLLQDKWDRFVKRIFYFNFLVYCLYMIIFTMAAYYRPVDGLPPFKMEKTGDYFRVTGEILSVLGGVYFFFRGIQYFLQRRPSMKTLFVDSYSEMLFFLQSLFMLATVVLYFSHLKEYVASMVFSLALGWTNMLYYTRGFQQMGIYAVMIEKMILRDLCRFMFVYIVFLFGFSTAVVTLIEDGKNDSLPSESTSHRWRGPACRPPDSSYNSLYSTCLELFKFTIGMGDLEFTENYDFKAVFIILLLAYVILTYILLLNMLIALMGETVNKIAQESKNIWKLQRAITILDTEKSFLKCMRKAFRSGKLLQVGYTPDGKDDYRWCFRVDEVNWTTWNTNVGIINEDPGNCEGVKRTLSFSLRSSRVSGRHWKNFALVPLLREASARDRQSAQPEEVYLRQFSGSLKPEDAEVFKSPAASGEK
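Cells expressing TRPV1 were dye-loaded with Fluo-8 and read kinetically: 10 s baseline, 3 min after compound (agonist portion), then 2 min after EC20 capsaicin (allosteric enhancer portion). Calcium-bound dye fluorescence at 480/520 nm.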
Sfp PPTase inh: qHTS Assay for Inhibitors of Bacillus subtilis Sfp phosphopantetheinyl transferase (PPTase) | Biochemical Sfp PPTase activity, qHTS | Potency, µM, for the others: max response, negative = inhibition, most hits filed as inhibitors | 4'-phosphopantetheinyl transferase ffp (Bacillus subtilis), Q9F4F7 | AID 1490, 2009 | 3.5% of 310,000 active; active means well fitted inhibition curve with a large enough effect; inconclusive means small, poorly fitted or top-dose-only effect, or another doubt; inactive means no such curve, though single readings can be large or run the other way;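 further: the enzyme is Sfp with the accession as filed and its product quenches rhodamine fluorescence; potency means the concentration at half of the fitted maximal effect; 0% = enzyme reaction without inhibitor and -100% = no enzyme wells; top concentration of the series not given in the record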
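After 15 min at room temperature with compound, 15 nM Sfp received 5 uM rhodamine-CoA plus 12.5 uM BHQ-2-ybbR (50 mM Hepes pH 7.6, 10 mM MgCl2). Rate came from the fluorescence difference over 30 min, ex 525/em 598 nm.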
ClpP mod: qHTS Assay for Activators of ClpP; ATP-dependent Clp protease proteolytic subunit (Bacillus subtilis (strain 168)), P80244; purified B. subtilis ClpP, FRET peptide cleavage, 20 min; Potency, µM (series often up to 57.5 µM), for inactives: at the top dose activity change, negative = active; 1.9% of 340,000 active; AID 651965, 2013; active = well fitted falling curve with a large enough effect; inconclusive = small, poorly fitted or top-dose-only effect; inactive = no such curve, though single readings can be large or run the other way; further: potency means the concentration at half of the fitted maximal effect; the source files actives as falling curves though it sought activators and does not explain the sign; nearly all actives have a fitted effect of over 65% in size; many hits overshoot -100%
Target sequence (P80244 whole entry, looked up): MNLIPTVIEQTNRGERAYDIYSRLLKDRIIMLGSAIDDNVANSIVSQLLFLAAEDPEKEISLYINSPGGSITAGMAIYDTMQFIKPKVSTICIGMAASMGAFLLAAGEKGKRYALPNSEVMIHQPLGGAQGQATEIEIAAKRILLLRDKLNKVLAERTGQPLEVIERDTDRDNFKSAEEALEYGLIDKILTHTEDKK
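Buffer: 100 mM Tris/HCl pH8, 100 mM KCl, 0.05% low protease BSA, 2.5% glycerol, 0.01% Tween-20. ClpP 10 microg/mL final; 20 min RT; delta FRET normalized to ADEP and DMSO controls.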
Menin MLL FP FL: qHTS Assay for Inhibitors Targeting the Menin-MLL Interaction in MLL Related Leukemias: Competition With Fluorescein Labeled MLL-derived Peptide | Fluorescence polarization, fluorescein-MLL peptide displacement from menin | FP activity change, % at 61.4 µM | 290,000 tested, under 10 active; inconclusive = falling polarisation curve, or a change in total fluorescence; inactive = total fluorescence flat and polarisation flat or rising; no compound was filed as active; the % refers to the polarisation; negative = inhibition;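 further: % of control where 0% means no effect; inhibitors lower the polarisation; unlabelled MLL peptide was the positive control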
gsp ag: qHTS for Agonist of gsp, the Etiologic Mutation Responsible for Fibrous Dysplasia/McCune-Albright Syndrome: qHTS; 0.13% of 340,000 active; Potency, µM (series often up to 76.9 µM), for the others: at the top dose activation (cAMP increase), most hits filed as activators; gsp mutant cells, cAMP HTRF, 30 min; control for the full effect not named in the record; active = well fitted activation curve with a large enough effect; inconclusive = small, poorly fitted or top-dose-only effect, or another doubt; inactive = no such curve, though single readings can be large or run the other way; cell line not stated here;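 further: phosphodiesterase inhibitor Ro 20-1724 added with compounds to block cAMP breakdown; potency means the concentration at half of the fitted maximal effect; nearly all actives have a fitted effect of over 60% in size; about a fifth of the inactives were tested at one dose only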
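Cells in DMEM/10% FBS with G418 were pretreated with compounds in DMSO plus […] (300 uM stock) for 30 min at 37C. cAMP was measured by HTRF (cAMP-d2 plus anti-cAMP antibody-K) after 30 min at room temperature.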
gsp antagonist: qHTS for Antagonists of gsp, the Etiologic Mutation Responsible for Fibrous Dysplasia/McCune-Albright Syndrome: qHTS; gsp-mutant cells, cAMP HTRF, 30 min; control for the full effect not named in the record; Potency, µM (top dose mostly 76.9 µM), for inactives: at the highest dose activity change, negative = inhibition, actives largely listed as inhibitors; 0.4% of 340,000 active; AID 624288, 2012; active = falling curve of any shape with a large fitted effect; inconclusive = falling curve, mostly with a smaller effect; inactive = flat or rising curve; cell line not stated here;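 further: intracellular cAMP measured with PDE inhibitor Ro 20-1724 present during compound exposure; potency means the concentration at half of the fitted maximal effect; on the % scale 0 is the no-effect control and ±100 the full control effect; nearly all actives have a fitted effect of over 65% in size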
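Measurement of cellular cAMP by homogeneous time-resolved fluorescence following a 30 min compound exposure at 37C. The PDE inhibitor […] was present throughout; the assay buffer was DPBS with 0.05% BSA and 0.005% Tween 20.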
CtBP-E1A inh: qHTS Assay for Inhibitors of the CtBP/E1A Interaction. CtBP / adenovirus E1A interaction (AlphaScreen). AlphaScreen GST-E1A/His-CtBP binding, 1536-well; hits give low values; control for the full effect not named in the record. activity change, % (no concentration beside the values). 0.49% of 340,000 active. AID 651724, 2012; in the data active means activity change below about -65%; inconclusive means about -30% to -65%; inactive means above about -30%; further: on the % scale 0 is the no-effect control and ±100 the full control effect; compound concentration not given in the record
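Steps: dispense buffer (Tris pH 8.0, NaCl 300 mM, TCEP 1 mM, BSA, Tween 20); add 5X protein mix (GST-E1A, His-CtBP, 125 nM each); pin 23 nL compound; 2 h at 37 °C, dark; add 5X beads (50 ug/mL); 1 h; read.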
An asterisk follows results filed as active; ? = inconclusive; nt = not tested or not shown; [ ] = remark or other dose.

SMILES	TRPV1 PAM	Sfp PPTase inh	ClpP mod	Menin MLL FP FL	gsp ag	gsp antagonist	CtBP-E1A inh
COc1ccccc1NC(=O)CN1C(=O)NC(C)(C)C1=O	-3	10%	0.8%	-0.9	4%	12%	11
Cc1cccc(CN2CCN(CC(=O)NCc3ccc(F)cc3)C2=O)c1	nt	nt	1.1%	nt	7%	2%	2
CC(=O)Nc1ccc(C(=O)OCc2ccc(Cl)c(Cl)c2)cc1	-12	-16%	13%	2.8	-1%	-16%	0
Cc1c(S(=O)(=O)Nc2ccc(Oc3ccccc3)cc2)c(=O)n(C)c(=O)n1C	5	4%	1.5%	nt	-19%	3%	1
O=C(COC(=O)c1cc(=O)[nH]c2ccccc12)NCc1ccc(F)cc1	16	nt	-5.7%	nt	26%	21%	-2
CN1CCN(c2nc3c(c(=O)n(C)c(=O)n3C)n2CC(N)=O)CC1	-4	7%	1.5%	-1.2	20%	10%	21
Cc1c(C(=O)N2CCC(C)CC2)cccc1[N+](=O)[O-]	-2	13%	0.9%	3.8	12%[15.4 µM]	9%	5
Cc1ccc(-c2cc(C(=O)NN)n[nH]2)o1	5	-4%	nt	1.6	8%[15.4 µM]	-5%	-7
c1ccc(CCNCCCOc2cccc3ccccc23)cc1	-2	-20%	nt	1.6	-40%[inhibitor]	4%	-16
Cn1c(Cc2ccccc2)nnc1SCC(=O)c1cccs1	8	0%	0.7%	3.1	-34%[inhibitor]	29%	7
CCc1ccc(CCC(=O)Nc2ccc(OC)cc2)o1	-16	18%	-3.0%	4.7	0%	-5%	-3
COc1ccc(NC(=O)COC(=O)C2CCC2)cc1Cl	6	8%	0.6%	nt	-10%	11%	1
Cc1cccc(N(CC(=O)NC2CCCCC2)C(=O)CCCC(=O)Nc2ccccn2)c1	8	12%	-24%	0.9	13%	7%	10
CCCCN(C(=O)c1ccc(-c2ccc([N+](=O)[O-])cc2)o1)c1c(N)n(CCCC)c(=O)[nH]c1=O	-14	nt	-2.4%	nt	-13%	4%	17
CC12CCC(C(=O)N(CCC#N)CCC#N)(CC1=O)C2(C)C (stereo not drawn)	0	8%	0.9%	4.5	-11%	13%	-22
CCOC(=O)C1=C(NC(=S)NC(=O)c2ccccc2)c2ccccc2CC1(C)C	2	16%	-4.1%	0.6	0%	1%	-22
COC(=O)c1ccc(CSc2ncnc3c2nnn3-c2ccc(OC)cc2)o1	2	-19%	-0.7%	1.9	1%	-2%	6
COc1ccc(N(C(=O)CS(=O)CC(=O)Nc2ccc(F)cc2)C(C(=O)NC2CCCCC2)c2cccs2)cc1 (stereo not drawn)	4	16%	-5.6%	3.5	-38%[inhibitor]	10%	8
Cn1c(CCN2CCCCC2)nc2cc(NC(=O)COc3ccc([N+](=O)[O-])cc3)ccc21	22	7%	0.7%	-0.7	7%	6%	0
COc1ccc(CCN2CC(O)=C(c3nc(C)cs3)C2=N)cc1OC	10	0%	0.2%	6.1	-24%	6%	-19
CCN1CCN(c2ccc(S(=O)(=O)N3CCCCC3)cc2N)CC1	-1	nt	-2.3%	nt	26%	15%	11
COc1ccc(N2CC(C)(C)[C@H](CC(=O)Nc3ccccc3)C2=O)cc1	nt	nt	-2.2%	nt	-57%[inhibitor]	nt	-1
CC(=O)Nc1ccc(S(=O)(=O)Nc2nc3ccccc3nc2Nc2ccc(C(=O)O)c(O)c2)cc1	nt	nt	nt	nt	22%	-3%	?
COc1cc2c(cc1/C=C/C(=O)O)OC(C)C2 (stereo not drawn)	-12	8%	3.8%	6.3	?	-11%	-8
O=C(CSc1ccc(-c2cccnc2)nn1)Nc1ccc(F)cc1	1	3%	0.2%	3.5	-24%	-10%	0

(list continues)
SMILES	TRPV1 PAM	Sfp PPTase inh	ClpP mod	Menin MLL FP FL	gsp ag	gsp antagonist	CtBP-E1A inh
O=C(OC1CCOC1=O)c1ccc2ncsc2c1 (stereo not drawn)	-2	5%	0.4%	0.8	1%	13%	3
Cc1ccc(C(=O)N2CCN=C2SCc2ccc([N+](=O)[O-])cc2)cc1C	-4	2%	-4.4%	7.0	-3%[15.4 µM]	4%	-3
O=C(c1ccc(Cl)c(S(=O)(=O)Nc2ccccc2C(=O)N2CCc3ccccc3C2)c1)N1CCc2ccccc2C1	26	20%	-4.9%	3.8	15%	-17%	7
COc1ccc(/C=C/C(=O)NCCOc2ccccc2OC)cc1	17	7%	-1.4%	2.9	29%	-3%	-4
COc1ccccc1S(=O)(=O)CC(O)COc1ccc(C#N)cc1 (stereo not drawn)	4	-2%	nt	-3.5	-20%[15.4 µM]	14%	-12
CCOC(=O)c1cc(-c2ccc(Cl)s2)[nH]n1	nt	4%	-0.2%	3.9	-11%	-4%	nt
COc1ccccc1N(C)S(=O)(=O)c1ccc(C(=O)N(C)Cc2cccc(F)c2)cc1	nt	nt	0.7%	nt	-2%	nt	4
O=C(CCC1CCCCC1)Nc1ccccc1-c1ccccc1	-28	4%	-1.7%	-1.0	-16%	-16%	24
CCOc1ccc(-c2nnc3ccc(SCC(=O)N4CCCCC4)nn23)cc1	-1	14%	-1.9%	0.0	?	-7%	4
Brc1ccc(-c2nnc(-c3ccccc3)o2)o1	-10	4%	?	-0.5	11%	-2%	8
CCNc1nc2cccnc2s1	?	15%	-4.8%	0.5	7%	7%	nt
O=[N+]([O-])c1ccc(NCc2ccc3c(c2)OCO3)cc1	7	9%	nt	-0.3	-2%	5%	-19
Cc1nc2ccccc2c(=O)n1NC(=O)c1ccc(C(C)(C)C)cc1	7	-3%	-0.3%	-2.3	12%	-3%	nt
CCNc1nc(NCC)n2c(SCC(=O)Nc3cccc(F)c3)nnc2n1	-15	nt	-0.5%	nt	4%[15.4 µM]	-3%	-2
COC(=O)[C@H](CCSC)NC(=O)Nc1cccc(Br)c1	23	27%	-1.9%	3.4	-1%[15.4 µM]	7%	-2
C/C(=N\NC(=O)c1ccoc1C)c1cccc2ccccc12	-19	8%	nt	-5.9	4%[15.4 µM]	-2%	5
O=C(NCC(=O)N1CCN(C(=O)c2ccccc2)CC1)c1ccc(Cl)cc1Cl	20	nt	0.7%	nt	-5%	2%	10
O=c1cc(/C=C/c2ccccc2)oc2c1ccc1ccccc12	-2	79µM*	28µM*	2.0	24%	-10%	0
O=C(c1ccc2ccccc2c1)c1cccc(F)c1C(=O)O	nt	nt	-8.2%	nt	?	nt	-5
O=C(Cc1cccc2ccccc12)NCCc1ccccc1	8	29%	-0.4%	0.7	20%[15.4 µM]	-11%	4
COCCCN1C(=O)c2ccc(C(=O)Nc3ccccc3OC)cc2C1=O	-9	7%	?	0.4	-27%	10%	2
Cc1ccc(NC(=O)CCCc2ccccc2)nc1	4	6%	nt	-7.0	22%	6%	-16
CCN(CC(=O)NCc1ccc(F)cc1)C(=O)c1ccc(C)o1	3	6%	nt	2.9	12%	-3%	7
Clc1c(-c2ccccc2)nc2ccccn12	23	13%	nt	0.7	16%	-5%	6
CN1C(=O)/C(=C/c2cc(N=Nc3ccccc3)ccc2O)SC1=S	1	-6%	0.1%	6.6	-23%	-24%	-13

(next part)
SMILES	TRPV1 PAM	Sfp PPTase inh	ClpP mod	Menin MLL FP FL	gsp ag	gsp antagonist	CtBP-E1A inh
CC(C)N(CCNC(=O)COc1ccc2oc3c(c2c1)CCCC3)C(C)C	-1	5%	-1.4%	nt	?	9%	-25
COc1ccccc1C(=O)N/N=C(\C)CC(=O)Nc1ccc2c(c1)OCCO2	6	6%	0.9%	1.3	2%[15.4 µM]	-21%	0
CCOC(=O)c1sc2nccc(N(C)C)c2c1N=CNOC	-7	2%	-29%	4.9	25%	14%	13
Cc1c(Cl)c(-c2n[nH]c(=S)n2Cc2ccco2)nn1C	9	-9%	-0.7%	-2.3	-14%	-17%	-5
CSc1scc2c1-c1nc(SCC(=O)C(C)(C)C)ncc1CC2	14	5%	3.7%	1.8	-3%	?	nt
C=CCn1c(=O)[nH]c(=O)c2c(N)c(C(=O)c3ccc(OC)cc3)sc21	nt	nt	nt	nt	-28%[15.4 µM]	6%	-10
O=C(CSc1ncn(-c2ccccc2)n1)Nc1ccc2c(c1)OCO2	?	-10%	-0.3%	-1.4	-18%	10%	1
Cc1nc2nc(-c3ccccc3)cn2nc1C	-4	11%	?	-1.1	-1%	6%	-5
CCC(C)Nc1nc(-c2ccccn2)nc2ccccc12 (stereo not drawn)	-23	-12%	0.5%	-2.8	-69%[inhibitor]	17%	-14
O=C(CCSc1nc2cc(Cl)ccc2o1)N1CCOCC1	-1	3%	-4.1%	-1.4	4%	-14%	-6
Cc1ccc2c(c1)C(=NC1CCCCC1)c1cc3ccccc3nc1-2	6	?	0.4%	?	28%	6%	-3
Cc1cc(C)c(NC(=O)C2CCN(S(C)(=O)=O)CC2)c(C)c1	nt	nt	1.2%	nt	5%	nt	0
CSc1nc(-c2ccccc2)nn1S(=O)(=O)c1ccccc1	-2	-3%	-12%	0.4	-11%	-16%	-13
CCCN(CC1CCCO1)C(=O)c1cc(COc2cccc(OC)c2)on1 (stereo not drawn)	-11	15%	-3.4%	nt	-8%	-4%	3
CN(C)/C=C/C(=O)c1ccc(-n2cccc2)cc1	12	3%	0.5%	-1.9	-34%[inhibitor]	-6%	-7
NC(=O)C1CCCN(C(=O)Nc2cccc3ccccc23)C1 (stereo not drawn)	-3	19%	?	3.0	-20%	6%	0
CCOC(=O)N1CCN(C(=O)CSCc2ccc(C)cc2)CC1	-2	5%	1.2%	-2.0	-14%	?	2
O=C(NCC1CCCO1)c1ccc2[nH]c3c(c2c1)CCCC3 (stereo not drawn)	4	nt	-2.7%	nt	12%[15.4 µM]	6%	-2

Source: PubChem BioAssay (National Center for Advancing Translational Sciences (NCATS))

The order is random; 5.3% or so of the library scored in one or more.
